Assay outcomes deposited in PubChem by ICCB-Longwood Screening Facility, Harvard Medical School.
AID504770: E. coli YBA685 growth inhibition, screen for V. cholerae RctB inhibitors. E. coli YBA685 rctB-dependent plasmid, OD600 growth, 3 h; stronger effect = lower value. z-score (concentration not given with the values). 0.27% of 130,000 active;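 active means z-score under -2 on both plates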;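 further: wells of about 30 µL received 100 nL stock; score is relative to mean and SD of the test wells; the first replicate is given; strong numbers were not always called active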
Ba CapD inh: inhibitors of Bacillus anthracis CapD enzyme | 0.23% of 140,000 active | purified CapD enzyme, fluorescence intensity read-out; stronger effect = lower value; some hits fall short of the stated cut | z-score (test concentration not listed);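 active means z-score under -4 in either of two replicates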;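 further: stock transfer was 100 nL into about 40 µL; score is relative to mean and spread of the plate; one replicate is shown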
Numbers without * were called inactive; · = not tested or not shown; & = joins results of further samples. Not a hit list, and some 0.37% of all compounds hit somewhere here.

compound	Ba CapD inh	AID504770
Nc1nnc(CCC(=O)O)c(=O)[nH]1	·	-0.55
O=S(=O)(Nc1ccc(C(O)(C(F)(F)F)C(F)(F)F)cc1)c1ccccc1	-1.01	-0.7
CC1CCCC(C)N1C(=O)c1noc2c1CCc1ccccc1-2 (stereo not given)	-0.255	-0.55
O=C(OC1CCCCC1=O)c1ccc(F)cc1Cl (stereo not given)	·	-0.75
Cc1ccc(NC(=O)CN(C)S(=O)(=O)c2ccc3c(c2)CCCC(=O)N3)cc1F	-1.02	0.55
COC(=O)C1=C(C(=O)OC)SC2(S1)C(C(=O)OC)=C(C(=O)OC)SC1=C2c2cc(OC)ccc2NC1(C)C	-0.715	·
CC1(C)CC(=O)c2c(SCC(=O)NN)sc(C#N)c2C1	-1.36	-0.35
Cc1cc(C)n(-c2ccc3nncn3n2)n1	0.79	0.45
CCC(C(=O)Nc1ccc(S(N)(=O)=O)cc1)c1ccccc1 (stereo not given)	0.14	0
Cc1cc(C)c(C(=O)N2CCCCC2C)c(C)c1 (stereo not given)	0.185	-0.95
O=C(c1csc2c1CCCC2)N1CCOCC1	-0.07	-0.2
N#C/C(=C(/O)Cn1nc(C(=O)O)c2ccccc2c1=O)c1nc2ccccc2[nH]1	·	0.5
Cc1nc(N2CCOCC2)c2c(C)c(C(=O)N3CCCc4ccccc43)sc2n1	0	·
CN(C)S(=O)(=O)c1ccc2c(c1)c(=O)c(C(=O)N1CCN(c3ccccc3)CC1)cn2C	-1.25	-1
O=C(Nc1nc2ccc3ccccc3c2o1)c1cccs1	29.6	·
Clc1ccccc1/C=C/C=Nc1ccc(N2CCOCC2)cc1	0.07	-0.35
CCOC(=O)c1ccc(NC(=O)c2ccc(C)cc2)cc1	-0.095	0.25
COc1ccc(/C(O)=C2/C(=O)C(=O)N(c3ccccn3)C2c2cccnc2)cc1 (stereo not given)	-0.345	·
CCC(=O)N=c1sc2ccccc2n1C	·	-0.6
O=C1C(=Cc2cc3c(cc2[N+](=O)[O-])OCO3)C(=O)N(c2ccccc2)C(=S)N1c1ccccc1	0.68	·
c1ccc(C2CCCN(c3ncnc4nc[nH]c34)C2)cc1 (stereo not given)	0.41	-0.25
Cc1cccc(NC(=O)CSc2nc(N)c(C#N)c(-c3cccs3)c2C#N)c1	-0.645	·
CCc1ccccc1NC(=O)CCNS(=O)(=O)c1ccc2[nH]c(=O)ccc2c1	3.33	0.1
COc1ccc(Oc2c(C(F)(F)F)oc3c(CN4CCOCC4)c(O)ccc3c2=O)cc1	-0.79	·
CC(C=C1C(=O)NC(=O)NC1=O)c1ccccc1 (stereo not given)	2.61	-0.75
Cc1ccc(/C=C2/C(=O)C3CCN2CC3)cc1	-0.305	1.15
CC(NC(=O)CCCc1cccs1)c1ccc(S(N)(=O)=O)cc1 (stereo not given)	·	0.1
c1csc(CNc2ccc(-c3nc4ncccc4o3)cc2)c1	·	1.4
O=C1CCC(=O)N1CN1CCOCC1	-0.44	-0.05
CC(=O)N1CC(=O)c2ccccc21	63.3	0.1
Oc1ccc2cc(-c3nc(-c4ccc(Br)cc4)cs3)c(=Nc3ccc(-c4ccccc4)cc3)oc2c1	0.38	·
CCCCCC(=O)Nc1ccc(Cc2ccncc2)cc1	·	-1.35
CCOc1cc(CNCc2cccnc2)cc(Cl)c1OCc1cccs1	0.18	0
Cc1c(C(=O)O)cc(-c2ccccc2)n1CCSCc1c(F)cccc1Cl	10.9	0.2
CCCC(C)c1c(O)n(CC)c(=S)[nH]c1=O (stereo not given)	-0.3	-0.75
Oc1ccc(/C=N/n2cnn(Cc3ccccc3Cl)c2=S)c(O)c1	·	-0.35
CCCN(CCC)Cc1c(C(=O)O)nnn1-c1nonc1N	0	-0.3
CCn1c(/C=C/C=C2\N(C)c3ccccc3C2(C)C)[n+](Cc2ccccc2)c2ccccc21	-1.85	·
O=C(Nc1cc(Cl)ccc1Oc1ccc(Cl)c2ccccc12)c1cc(Cl)cc(Br)c1O	0.77	·
C1=C(c2ccccc2)CC(c2ccccc2)=NN=C1c1ccccc1	0.125	-0.05
S=C=NCc1ccccc1	·	0.7
O=C(CN1CCN(c2cccc(C(F)(F)F)c2)CC1)c1cccs1	-0.325	·
COc1ccc2nc(N=C(N)N)nc(C)c2c1	39.9	0.7
O=C1NC(=S)N(c2cccc(Br)c2)C(=O)/C1=C/C=C/c1ccccc1	-0.54	·
CC(C)(C)c1cc2nc(-c3ccc4c(c3)CCC4)cc(C(F)(F)F)n2n1	0.01	·
CCS(=O)(=O)c1nc(S(=O)(=O)c2ccc(Cl)cc2)c(N2CCCC2)s1	1.99	-0.1
O=C(Nc1ccccc1)c1cccc(S(=O)(=O)N2CCCCC2)c1	-0.025	-1.5
COc1ccc(C=C2C(=O)c3ccccc3C2=O)cc1	-0.655	-0.85
Cc1nc(COC(=O)c2ccc3c(=O)n4c(nc3c2)CCCCC4)cs1	·	-0.5
O=S(=O)(NC1CCSC1)c1ccc(Cl)cc1 (stereo not given)	0.95	0.4
C=C1C(C(=O)N2CCN(Cc3ccccc3)CC2)C1C(=O)N1CCN(Cc2ccccc2)CC1 (stereo not given)	·	-0.2
O=c1[nH][nH]c(=S)n1Cc1ccccc1	8.73	-1.2&-0.5
CCn1c(=NC(=O)CSCC(=O)Nc2cc(C)on2)sc2ccccc21	-0.295	-0.7
COCCn1c(=O)[nH]c2cc(C(=O)N3CCN(Cc4ccc5c(c4)OCO5)CC3)ccc2c1=O	8.98	0.45
O=C(Nc1ccc(Oc2ccc(Cl)cc2)cc1)c1cc2cc([N+](=O)[O-])ccc2oc1=O	-0.12	·
CC(=O)Nc1ccc(C(=O)CSc2nc3ccccc3c(=O)[nH]2)cc1	-0.66	·

Going on with the list.
compound	Ba CapD inh	AID504770
CCOC(=O)c1c(C)[nH]c(C)c1C(=O)Cn1c(C)nc2cc3c(cc21)OCCO3	·	-0.55
O=C(Nc1ccccc1)Nc1ccc(C(F)(F)F)cc1Br	0.105	·
Cc1nc(-c2ccc(S(=O)(=O)N3CCN(c4ncnc5scc(-c6ccccc6)c45)CC3)s2)cs1	0.23	·
N#CCc1ccc(OS(=O)(=O)c2ccc(Cl)cc2)cc1	0.31	·
c1ccc(-c2noc(NCCN3CCOCC3)n2)cc1	0.355	0
CCOC(=O)c1cccn1-c1ncc(C(F)(F)F)cc1Cl	-0.71	0.55
Cc1cccc(NC(=O)Cn2cc(C(=O)C3CC3)c3ccccc32)c1C	-0.17	1.75
Cc1ccc(-c2nnn(CC(=O)N3N=C(c4cccs4)CC3c3ccco3)n2)cc1 (stereo not given)	·	-1.65
O=C1NC(=O)C(Nc2ccccc2)S1 (stereo not given)	-0.2	-1
O=C(Cc1cccs1)NCc1ccccc1Br	0.065	-0.7
COc1ccc(C2=NC(C)(C)N(CC(=O)Nc3ccccc3)C2=O)cc1	-0.66	-0.4
COc1ccc(OC)c(COC(=O)Cc2coc3cc(OC)ccc23)c1	·	0.05
Cc1nnc(C)n1N1C(=O)c2cccc3cccc(c23)C1=O	60.8	-0.9
Cn1ncc(C(=O)N=S(C)(=O)c2ccccc2)c1[N+](=O)[O-] (stereo not given)	0.285	·
Cn1c(=O)[nH]c(=O)c2c1nc1oc(C(C)(C)C)cn12	·	0.5
c1ccc(Sc2ncnc3c2oc2ccccc23)cc1	·	0.2
COc1ccc(C2=NN(S(=O)(=O)c3ccc(C)cc3)C(c3ccc(F)cc3)C2)cc1 (stereo not given)	-0.51	·
CC(C)(C)OC(=O)N1CCC(c2c(C(=O)O)cnn2-c2ccccc2)CC1	-0.965	-0.65
CCn1c(=S)[nH]c2cc(C(=O)O)ccc2c1=O	·	-2
Cc1cccc(C)c1NC(=O)C(C)N (stereo not given)	-0.74	·
CSC(=NC(=O)c1c(Cl)cccc1Cl)N1CCCC1	0.465	-0.3
Fc1cccc(Cl)c1CN1CCNCC1	·	-0.95
O=C(c1ccc(CNS(=O)(=O)c2ccc(F)c(Cl)c2)cc1)N1CCOCC1	·	-0.9
COC(=O)c1ccc2c(=O)n(Nc3nc(C)cc(C)n3)c(SCc3cccc(Cl)c3)nc2c1	1.59	·
COCCn1c(=NC(=O)c2ccccc2OC)sc2cc(OC)ccc21	62	-0.7
CC(C)(C)NC(=O)CN1CCN(CC(N)=S)CC1	·	-1.1
Cc1ccnc(NC(=O)c2cccs2)c1	-0.2	2.15
COc1ccc(NC(=O)C2COc3ccccc3O2)cc1 (stereo not given)	-0.1	·
Clc1ccc(-c2nnn3c2nc(Cl)c2ccccc23)cc1	3.29	0.15
COc1ccc(/C=C2\SC(=NC3CCCC3)NC2=O)cc1	·	0.7
CCN(CC)C(=O)c1cn(-c2ccccc2)nc1-c1ccccc1	0.12	-0.5
C=CCOc1ccccc1OCC(O)CNC(C)C (stereo not given)	0.385	·
COc1ccc(OC)c(NC(=O)C(C(C)C)N2C(=O)c3ccccc3C2=O)c1 (stereo not given)	-0.255	0.3
O=C(COC(=O)Cc1cccc(C(F)(F)F)c1)NCc1ccco1	-0.35	0.45
Cc1oc(-c2ccccc2)nc1CS(=O)CC(=O)N(C)Cc1ccccc1 (stereo not given)	0.47	-0.35
N#CC1=C(NC(=O)c2cc3ccccc3oc2=O)CCC1	·	1.4
COc1ccc(Br)cc1C1C(N2C(=O)c3ccc([N+](=O)[O-])cc3C2=O)C(=O)N1c1ccc(Cl)cc1 (stereo not given)	-0.18	·
CN(C)C(=O)Oc1ccnc2cc(Cl)ccc12	·	-0.4
O=C(CCn1c(=O)oc2ccccc21)N1CCCc2ccccc21	·	-0.75
CCCCn1ncc(O)c(Cl)c1=O	0.26	-1.2

Quoted at random: 3 entries already listed
compound	Ba CapD inh	AID504770
O=C(CCn1c(=O)oc2ccccc21)N1CCCc2ccccc21	·	-0.75
O=C(COC(=O)Cc1cccc(C(F)(F)F)c1)NCc1ccco1	-0.35	0.45
Cc1oc(-c2ccccc2)nc1CS(=O)CC(=O)N(C)Cc1ccccc1 (stereo not given)	0.47	-0.35

Additional entries:
compound	Ba CapD inh	AID504770
Cc1cc(C)nc(SCc2cc3cccc4c3n(c2=O)CCC4)n1	1.63	·
Cc1ccc(S(=O)(=O)CC(O)COc2ccc(Br)cc2)cc1 (stereo not given)	0.525	0.15
Cc1ccc(O)cc1	0.015	0.05
O=C(Nc1cccc(-n2cnnn2)c1)C1CC(=O)N(c2ccc3c(c2)OCCO3)C1 (stereo not given)	·	1.4
C1CCc2nnnn2CC1	1.15	·
N#CCOc1ccc(C(=O)NC2CCN(Cc3ccccc3)CC2)cc1	·	0.4
C=CCN(CC)C(=O)C1C(=O)CC(C)(C)CC1=O	·	-0.85
Cn1ncc(C#N)c1/N=C/N1CCCCC1	0.51	0.2
CC(OC(=O)c1ccc2c(=O)n3c(nc2c1)CCCCC3)C(=O)Nc1ccc(Cl)cn1 (stereo not given)	·	0
c1ccc(C2Cn3nnnc3-c3ccccc3O2)cc1 (stereo not given)	0.33	-1.4
Cc1nc2sccn2c(=O)c1S(=O)(=O)N1CCN(c2ccccc2)CC1	-0.35	0.25
CCCN(Cc1nnc(-c2ccco2)o1)C(=O)c1cccnc1SCc1c(C)noc1C	·	0.55
COc1ccc(-c2c(-c3ccccc3)oc3ncnc(C)c23)cc1	65.9	-0.05
O=C(NC(=S)N(Cc1cccnc1)Cc1ccccc1Cl)c1ccccc1	-0.165	-0.25
O=C1/C(=C\c2ccccc2)N=C2SCCCCN12	1.09	-0.75
c1ccc2[nH]c(C3CCN(CCC4OCCO4)CC3)nc2c1	·	-0.1
CCCNC(=O)Nc1[nH]c(C)c(C(=O)OCC)c1C	-0.94	-0.8
O=C(NCc1ccccc1)c1noc2c1CCCC2	0.005	0.7
CN(CCO)C(=O)C1CCN(c2ncc(C(F)(F)F)cc2Cl)CC1	-0.865	·
Cc1ccc(C(C)C)c(OCCN2CC(C)CC(C)C2)c1 (stereo not given)	-1.26	-0.95
CC(C)C(=O)Nc1ccc2oc(-c3cccc4c(Br)cccc34)nc2c1	6	0.95
Cc1ccc2cc(OC(=O)c3ccc(Oc4cc(Cl)cc(Cl)c4)o3)ccc2n1	0.155	-1.25
N#Cc1ccc(COC(=O)c2oc3ccccc3c2COc2ccccc2)cc1	·	0.75
O=c1c(C=Nc2ccc(Cl)cc2)c(C(F)(F)F)[nH]n1-c1ccccc1	0.375	·
COc1ccc(C2=N/C(=C\c3cc(OC)ccc3OC)C(=O)O2)c(Br)c1	-0.505	·
CC(NC(N)=O)C1CC1 (stereo not given)	·	1.55
Cc1ccc(C)c(N2S(=O)(=O)c3ccccc3S2(=O)=O)c1	-0.28	·
COc1ccc(/C=C2\SC(=S)N(CCC(=O)N(CCO)c3ccccc3)C2=O)cc1OC	-0.125	·
CCN(CC)CCN(CCC#N)S(=O)(=O)c1cccc2nsnc12	-0.75	·
